# Ba CapD inh – inhibitors of Bacillus anthracis CapD enzyme | purified CapD enzyme, fluorescence intensity read-out; hits give low values; some hits fall short of the stated cut | z-score (no concentration beside the values) | actives 0.23% (n = 140,000);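 active = z-score under -4 in either of two replicates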;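 also: stock transfer was 100 nL into about 40 µL; score is relative to mean and spread of the plate; one replicate is shown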
# AID504770 – growth inhibitors of E. coli YBA685 in a screen for V. cholerae RctB (chromosome II replication) inhibitors | E. coli YBA685 rctB-dependent plasmid, OD600 growth, 3 h; hits give low values | z-score (no concentration beside the values) | actives 0.27% (n = 130,000) | AID 504770;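 active = z-score under -2 on both plates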;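 also: wells of about 30 µL received 100 nL stock; score is relative to mean and SD of the test wells; the first replicate is given; strong numbers were not always called active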
# Starred values were filed as active, the others as inactive; . = not tested or not shown. This is a subset; count on the stated rates, not on these rows.
mol	Ba CapD inh	AID504770
COc1cccc(C(=O)/C=c2\[nH]c(=O)/c(=C\c3cccs3)s2)c1	-1.71	1.25
CCOc1cc(C2C(C#N)=C(N)Oc3n[nH]c(-c4ccc(Cl)cc4)c32)cc([N+](=O)[O-])c1O (centres undefined)	-0.065	.
CCC(CC)C(=O)OCc1csc(Nc2ccccc2)n1	.	0.05
CCCc1nnc(SCC(=O)N2CCCCC2C)n1CC (centres undefined)	.	2.7
COC(=O)c1cc(C(=O)OC)c(C)nc1C	-0.105	-0.5
N/C(=N/S(=O)(=O)c1ccccc1)N1CCCCC1	0.455	0.15
COc1cccc(-n2nnc3c(=O)n(CC(=O)c4ccc(Cl)cc4)cnc32)c1	0.94	-0.05
CCCCn1c(N)nc2ccccc21	-0.09	-1.25
CC1CCCN(C(=O)c2cccc(Cl)c2)C1 (centres undefined)	0.08	0.1
COCCNC(=O)c1c[nH]n2c(=O)c(Cc3ccc(Cl)cc3)c(C)nc12	45.2	0.75
Nc1ccc(-c2csnn2)cc1	-0.47	-0.15
Cn1c(=O)c2c(nc(NCc3ccc4c(c3)OCO4)n2Cc2cccc(F)c2)n(C)c1=O	-0.26	.
O=S(=O)(c1ccc(Cl)cc1)n1ccc(-c2ccc(Br)s2)n1	-0.285	1.85
Nc1c(C(=O)NCCc2ccccc2)sc(=S)n1-c1ccccc1	-0.81	.
Cc1cccc(C)c1NC(=O)C(NC(=O)c1ccc(-n2cnnn2)cc1)c1ccccc1 (centres undefined)	0.34	-0.2
COc1ccc(-c2c(C#N)sc(C(N)=O)c2-c2ccc(OC)cc2)cc1	1.83	.
COc1ccc(C(NC(=O)c2cc(OC)c(OC)c(OC)c2)c2cc(Cl)c3cccnc3c2O)cc1 (centres undefined)	-0.12	.
CC1=C(C(=O)Nc2ccccn2)C(c2cccnc2)n2nnnc2N1 (centres undefined)	22.4	.
N#Cc1cccc(C(c2nnnn2Cc2ccc(F)cc2)N2CCc3ccccc32)c1 (centres undefined)	.	1.15
CCNc1nc(NCC)nc(N(C)N)n1	.	-0.35
CCOC(=O)C1=CNc2ccccc2S1	-3.04	-0.55
O=C(CC(c1ccccc1)c1cc(Cl)ccc1O)N1CCCCC1 (centres undefined)	0.48	1.7
CC(C)c1nc(N)n[nH]1	-0.465	-0.2
COc1ccc(C2=NN3C(C2)c2cc(Cl)ccc2OC3c2ccc(OC)c(OC)c2OC)cc1 (centres undefined)	-0.885	.
CC(NC(=O)C(c1ccccc1)c1ccccc1)c1ccccc1 (centres undefined)	-0.38	0.85
Cc1nnc(NC(=O)C(C)Sc2nncn2C)s1 (centres undefined)	.	0.35
O=C(Nc1c(F)cccc1Cl)N1CCCC1	-0.555	-0.55
O=C(NCc1cccs1)C1(c2ccccc2)CC1	.	1.75
C/C(N)=C(/C#N)C(=O)CSc1nc2ccccc2c(=O)n1Cc1ccc(C)cc1	.	0.05
CC(C)c1ccc(/C=N/n2nnnc2Nc2ccccc2)cc1	0.415	3.65
CCOc1ccc(NCc2cn3cccnc3n2)cc1	0.01	-0.2
O=C(c1ccc(-c2ccccc2)cc1)c1cc2cc([N+](=O)[O-])ccc2o1	-0.095	.
O=C1OCc2c1[nH]c(=O)[nH]c2=O	.	-0.6
CS(=O)(=O)n1c(SCc2csc(-c3ccc(Cl)cc3)n2)nc2ccccc21	0.65	.
O=C(CSc1nnc(CCN2C(=O)c3cccc4cccc(c34)C2=O)n1-c1ccccc1)N1CCN(CCO)CC1	7.47	.
Cc1cc2[nH]c(=O)c3ccccc3n2n1	.	-0.9
CC(=O)N1N=C(c2ccccc2)CC1Cc1cc2cccc(C)c2nc1Cl (centres undefined)	-0.09	.
COC(=O)C1=C(C(=O)OC)SC(=C2C(=S)C(C)(C)N(C(=O)c3sc4ccccc4c3Cl)c3c(C)cccc32)S1	-0.955	.
CNC(=O)CSCc1ccc(C(=O)OC)o1	.	0
O=S(=O)(c1ccc(NC(=S)NCCc2ccccn2)cc1)N1CCOCC1	.	0.75
COc1cccc(NC(=O)CSc2nccn2-c2ccccc2)c1	-0.855	-0.65
CCOCCn1cnc2sc(C(=O)NCCCN(CC)CC)c(C)c2c1=O	6.15	.
CC(C)(C)c1ccc(Cn2c(CN3CCOCC3)nc3ccccc3c2=O)cc1	.	-0.5
Cn1cnc2cc(NCc3ccco3)ccc21	52.1	-0.45
NS(=O)(=O)c1ccc(-n2nc(C(F)(F)F)cc2-c2cccs2)cc1	0.78	-0.1
O=C(C1CCC1)N1CCCC(c2nc3c(nnn3Cc3cccc(Cl)c3)c(=O)[nH]2)C1 (centres undefined)	.	1.35
Cc1ccc(-c2cnn(Cc3ccc(C(C)(C)C)cc3)c2)cc1	-0.335	.
COc1cc(/C=C(/NC(=O)C2CCCCC2)C(=O)N2CC3CC(C2)c2cccc(=O)n2C3)cc(OC)c1OC (centres undefined)	-0.13	1.45
CCCc1oc(C(=O)O)cc1CN(CC)CC	.	-0.05
O=C(c1ccc(C(F)(F)F)cc1)N(C1CC1)C1CCN(Cc2ccccc2)CC1	-0.63	.

# Shown with each value named: entries from further up
O=C1OCc2c1[nH]c(=O)[nH]c2=O
  Ba CapD inh: . | AID504770: -0.6
CC(C)(C)c1ccc(Cn2c(CN3CCOCC3)nc3ccccc3c2=O)cc1
  Ba CapD inh: . | AID504770: -0.5

# (further entries)
mol	Ba CapD inh	AID504770
Cc1c(C(=O)N2CCCC2)oc2ccc(S(=O)(=O)N3CCCC3)cc12	0.035	0.1
O=C1C(Oc2ccccc2)C(c2ccc3c(c2)OCO3)N1C1CCCC1 (centres undefined)	-1.4	-0.15
CCCCCCCOC(=O)C1=C(C)NC(=O)NC1c1cc(Br)c(O)c(OC)c1 (centres undefined)	-0.79	.
N#CCN(CC#N)C(=O)C1CC(=O)N(c2ccc(F)cc2)C1 (centres undefined)	.	-0.35
Cc1nnc(-n2cccc2)s1	0.045	.
CC1CN(C(=O)c2ccccc2)OC(c2cccs2)O1 (centres undefined)	-0.795	-0.1
CCc1nnsc1C(=O)Nc1nc2ccc(C)cc2s1	.	-0.45
CCOC(=O)Cn1cc(F)c(=O)[nH]c1=O	72.3	-0.95
CCC(C)N1CCN(Cc2ccccc2)CC1 (centres undefined)	.	-0.65
CC(C)(C)Nc1nc(C(=O)O)nc(N2CCOCC2)n1	-0.08	0.35
C/C(=N\Nc1nc(C(C)(C)C)cs1)c1ccc(Cl)c(Cl)c1	-0.925	.
O=C(Cn1c(=O)c(C(F)(F)F)nc2ccccc21)N1CCc2ccccc2C1	25.9	-1.2
O=C(COC(=O)c1n[nH]c2ccccc12)NC1CCCCCC1	.	0.45
Cc1cc(CSCc2ccc(Cl)cc2)no1	-0.77	-1.1
CCc1ccc(N/C(SCc2ccccc2Cl)=C(/C#N)C(N)=O)cc1	0.205	.
FC(F)(F)c1ccc(N2CCN(C(=S)NC3CC3)CC2)nc1	.	-1.2
Cc1nnnn1CCC(=O)NC(C)c1ccccc1 (centres undefined)	.	-0.5
CCC(C)SCc1cc(C(=O)O)oc1C (centres undefined)	0.165	0.2
CCOc1ccc(S(=O)(=O)NCCO)cc1C	-0.495	0.15
O=c1c2nccnc2[nH]c(=S)n1CCc1c[nH]c2ccccc12	0.475	0.25
CCOC(=O)Cc1csc(NC(=O)c2cc3c(=O)n4cccc(C)c4nc3n2C)n1	.	0.6
COC(=O)CSc1nc(N)c(C#N)c(-c2ccccc2)c1C#N	.	1.5
COc1ccccc1C1OC(=O)C[C@H]1C(=O)NN (some centres undefined)	0.955	-0.4
Cc1ncc(CO)c(/C=N/NC(=O)c2ccccc2Oc2ccccc2)c1O	-0.015	.
CC1CCN(CN2C(=O)/C(=C\c3ccc(C(C)(C)C)cc3)SC2=S)CC1	-1.83	.
NC(=O)C1CCN(c2ncc(Cl)cc2C(F)(F)F)CC1	0.97	.
CCCNC(=O)Nc1ccc(Br)cc1F	0.06	-0.65
CCC(=S)/C=C1/Sc2ccc(Cl)cc2N1CC	18.4	0.65
O=C(OCc1cc(Cl)cc2c1OCOC2)c1ccc(COc2ccccc2)o1	.	-0.85
CC(=O)Nc1ccc(N2C(=O)C3C4c5ccccc5C(c5ccccc54)C3C2=O)cc1Cl (centres undefined)	-0.095	.
CSc1ccc(C2C=C(c3ccc(Cl)s3)Nc3ncnn32)cc1 (centres undefined)	2.5	.
Cc1nc(SCC(=O)Nc2sc3c(c2C(N)=O)CCC3)c2c3c(sc2n1)CCCC3	0.2	.
O=C(CCc1ccccc1)N1CCN(c2nc3ccccc3s2)CC1	0.095	0.6
O=C(CNc1ccc(F)cc1)N/N=C/C1CC=CCC1 (centres undefined)	.	0.1
CCCc1c([N+](=O)[O-])cc(C(=O)O)cc1[N+](=O)[O-]	0.145	.
C=CCNC(=O)Cn1nc(-c2ccccc2)ccc1=O	0.355	1.5
O=C(CN1CCN(Cc2ccccc2)CC1)NCc1ccco1	0.57	-0.35
CC1CCC(NC(=O)c2ccccc2N)CC1 (centres undefined)	106	0.25
CCOC(=O)C1=C(c2ccccc2)OC(N)=C(C#N)C1c1ccc(Br)s1 (centres undefined)	-0.04	.
O=C(O)CCCC(=O)Nc1ccccc1-c1ccccc1	-0.7	-0.95
N#CC1=C(N)OC2=C(CN(Cc3ccccc3)C/C2=C\c2ccsc2)C1c1ccsc1 (centres undefined)	-0.275	.
COc1cccc(C(=O)NCCc2csc3nc(-c4ccc(C)cc4)nn23)c1OC	81.3	0.3
CCN(CC)c1ccc(C2C3=C(CC(C)(C)CC3=O)OC3=C2C(=O)CC(C)(C)C3)cc1	-0.195	-1.05
O=C(CSc1ccc(F)cc1)N1CCC(c2nc3ccccc3s2)CC1	-0.385	.
O=C(O)C1C2C=CC(O2)C1C(=O)NCc1cccc(Cl)c1 (centres undefined)	-0.38	-1.45
COC(=O)c1ccc(NC2=NCCCCC2)s1	.	0.55
CC1=C(C(=O)Nc2nc3ccccc3s2)C(c2ccc3c(c2)OCO3)C2=C(CC(C)(C)CC2=O)N1 (centres undefined)	50	.
CN(C)C(=O)CSc1nc2ccccc2c(=O)n1-c1ccccc1	0.175	0.2
O=C1COc2ccccc2N1Cc1c(F)cccc1Cl	.	-0.55
Cn1cccc1Cc1nnc(SCC(=O)N2CCCc3ccccc32)n1C	-1.12	1.85

# Complete entries, quoted from the list. Screens in order: Ba CapD inh | AID504770
# `O=C(O)CCCC(=O)Nc1ccccc1-c1ccccc1` is listed with -0.7 | -0.95
# `CC(=O)Nc1ccc(N2C(=O)C3C4c5ccccc5C(c5ccccc54)C3C2=O)cc1Cl` (centres undefined) is listed with -0.095 | .
# `CCCc1c([N+](=O)[O-])cc(C(=O)O)cc1[N+](=O)[O-]` is listed with 0.145 | .
# `C=CCNC(=O)Cn1nc(-c2ccccc2)ccc1=O` is listed with 0.355 | 1.5
# `CSc1ccc(C2C=C(c3ccc(Cl)s3)Nc3ncnn32)cc1` (centres undefined) is listed with 2.5 | .

# Additional records follow:
mol	Ba CapD inh	AID504770
COc1ccccc1C1CCN(C(=O)c2ccccc2C(F)(F)F)CC1	0.315	.
CC(C)Cc1nnc(NS(C)(=O)=O)s1	.	-0.1
CCOC(=O)C1=NNC2C(=O)N(c3cc(Cl)ccc3OC)C(=O)C12 (centres undefined)	.	-0.45
CCOC(=O)c1ccc(N2CCN(c3cccc(Cl)c3)CC2)c(NC(=O)Nc2ccccc2)c1	4.92	-0.6
O=C1CCCC2=C1C(c1ccco1)N(C(=O)c1ccccc1)c1ccccc1N2 (centres undefined)	-2.35	-1.55
Cc1nc2ccccn2c1-c1ccnc(SCC(=O)c2cccc(C(F)(F)F)c2)n1	26.9	-0.5
CCOC(=O)C1=C(C)NC(C)=C(C(=O)OCC)C1c1ccc(OC(=O)c2oc3ccccc3c2C)c(OC)c1	2.58	.
CC(C)(C)OC(=O)CCC(NC(=O)c1cc(=O)n(-c2ccccc2)[nH]1)C(=O)OC(C)(C)C (centres undefined)	0.02	.
CCN1C(=O)N/C(=C/c2ccc(OCC(=O)O)cc2)C1=O	-1.27	0.25
FC(F)(F)c1cccc(Cn2cc(-c3nc4ccccc4o3)cn2)c1	-0.385	.
Cc1ccc2c(CN3CCC(C)CC3)cc(=O)oc2c1	.	0.95
CC1CC(C)CN(CC(O)COCc2ccccc2F)C1 (centres undefined)	0.35	0.45
Cn1c(SCC(=O)Nc2ccc3c(c2)OCCO3)nnc1C(F)(F)F	.	-0.55
COC(=O)c1cc(Nc2nc(-c3cc(OC)c(OC)c(OC)c3)nc3ccccc23)cc(C(=O)OC)c1	2.71	.
COc1cccc2c1oc(=O)c1c(NC(C)=O)nc3c(c12)CCCCC3	0.305	-0.75
CC1CCN(c2ccc3nnc(CCC(=O)O)n3n2)CC1	-0.365	-0.5
CN1CCc2nc3ncccc3cc2C1	5	.
CC(NCc1ccc(OCc2ccc(F)cc2)cc1)C(=O)O (centres undefined)	0.145	.
CN1C2CCC1CC(N(CCc1c[nH]c3ccccc13)C(=O)c1cc(Cl)cc(Cl)c1)C2 (centres undefined)	-0.16	.
c1ccc2c(c1)ccc1oc(-c3ccn[nH]3)cc12	60.7	1.1
Cc1csc(=O)n1CCOC(=O)c1ccc(Br)cc1	.	-0.55
Fc1c(CN2CCOCC2)cccc1CN1CCOCC1	0.275	-0.3
CC1=C(C(=O)Nc2cccc(F)c2)C(c2ccc(C(C)(C)C)s2)C2=C(CC(C)(C)CC2=O)N1 (centres undefined)	18.7	.
CCOC(=O)c1cccc(NS(=O)(=O)c2ccc3c(c2)CCCN3C(C)=O)c1	-0.57	-0.25
Cc1ccc2nc(N=C(N)N)nc(C)c2c1	63.3	0.65
